High-throughput results: PubChem, Johns Hopkins Ion Channel Center
KCNQ2 pot: enhances the rat KCNQ2 potassium channel. hit rate 0.54% among 310,000. B-score at 10 µM. O88943. CHO-K1 KCNQ2, FluxOR thallium flux fluorescence; hits give high values. AID 2239;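 active means fluorescence ratio B-score at least 3 SD of library B-scores, with initial fluorescence B-score within 3 SD, cut at about 5.3 in these data; same plate scores as AID 2156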;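 further: B-score of peak minus minimum over baseline fluorescence ratio after K+ and Tl+ stimulus; positive B-score means potentiation of KCNQ2 with more thallium influx and brighter signal; only the inactives scoring about 0 or higher are listed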
Target sequence (O88943 whole entry, looked up): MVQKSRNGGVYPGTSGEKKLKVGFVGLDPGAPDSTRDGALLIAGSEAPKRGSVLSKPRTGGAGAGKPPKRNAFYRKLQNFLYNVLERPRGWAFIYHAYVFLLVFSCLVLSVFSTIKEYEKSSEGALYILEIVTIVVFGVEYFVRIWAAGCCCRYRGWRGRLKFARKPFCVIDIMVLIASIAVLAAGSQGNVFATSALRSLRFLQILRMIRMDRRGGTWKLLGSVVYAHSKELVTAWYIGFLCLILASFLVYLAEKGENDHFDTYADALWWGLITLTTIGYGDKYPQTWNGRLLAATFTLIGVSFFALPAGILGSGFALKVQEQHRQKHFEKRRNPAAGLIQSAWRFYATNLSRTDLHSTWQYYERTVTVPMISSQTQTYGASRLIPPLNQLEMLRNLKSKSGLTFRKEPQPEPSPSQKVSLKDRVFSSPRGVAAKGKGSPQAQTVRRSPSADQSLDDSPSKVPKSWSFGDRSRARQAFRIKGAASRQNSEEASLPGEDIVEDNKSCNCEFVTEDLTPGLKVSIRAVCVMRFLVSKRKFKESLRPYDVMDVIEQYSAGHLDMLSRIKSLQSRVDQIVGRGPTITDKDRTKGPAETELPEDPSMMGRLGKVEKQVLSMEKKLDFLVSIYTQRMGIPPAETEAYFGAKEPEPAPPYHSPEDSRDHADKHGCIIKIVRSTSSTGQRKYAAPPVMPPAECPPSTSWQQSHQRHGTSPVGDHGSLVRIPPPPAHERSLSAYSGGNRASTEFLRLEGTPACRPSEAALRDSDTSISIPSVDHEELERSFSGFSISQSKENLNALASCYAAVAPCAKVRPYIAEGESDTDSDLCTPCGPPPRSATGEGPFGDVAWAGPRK
KCNQ2 pot baseline: also measured in KCNQ2 pot; calls as there; B-score; compound at 10 µM; measured here: initial fluorescence intensity artifact check;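 brightness before thallium and not channel activity; 0 = typical well and far values either way flag optical interference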
The depositor's hits bear a star. An excerpt; count on the stated rates, not on these rows.

SMILES	KCNQ2 pot	KCNQ2 pot baseline
COC(=O)c1ccc(NC(=O)CSc2nncc3ccc(OC)c(OC)c23)cc1	0.48	-0.76
O=C(N/N=C/c1ccccn1)c1cc(-c2ccc(Br)cc2)nc2ccccc12	4.8	0.89
Cc1cc(C(=O)NNC(=O)Nc2ccccc2)no1	0.65	0.92
O=c1[nH]c2ccccc2c2ccccc12	1.1	-3
CCOc1ccccc1N(CC(=O)Nc1ccccc1)S(=O)(=O)c1ccccc1	1.2	-0.11
Cc1cccc(C)c1NC(=O)NC1(C(=O)NCCCN2CCOCC2)CCCCC1	0.57	-0.41
Cc1cc(N2Cc3ccccc3C2)ccc1C=O	1.3	-0.27
CCOC(=O)c1[nH]c2c(c1-c1ccccc1)C(=O)CC(c1ccc(OCC)cc1)C2 (stereo not given)	0.48	0.71
CCCOc1ccc(/C(O)=C2\C(=O)C(=O)N(CCCOC)C23C(=O)N(C)c2ccccc23)cc1 (stereo not given)	0.69	0.07
CCOC(=O)c1c(-c2cccs2)csc1NC(=O)CSc1ncn[nH]1	1.6	-1.9
COc1ccc(S(=O)(=O)N2CCOCC2)cc1NC(=O)Cc1ccc(Cl)c(Cl)c1	0.74	-0.67
CC1(C)c2[nH]c3ccccc3c2C[C@H]2C(=O)N(CCCCCO)CC(=O)N21	1.2	-1
COc1ccc(C)cc1S(=O)(=O)N(CC(=O)N1CCCC1)c1ccccc1	0.05	0.37
CC(=O)c1c(O)cc(=O)n(-c2ccccc2)c1-c1cccc2ccccc12	0.99	0.3
CC(=O)Nc1ccc(S(=O)(=O)NC2(C(F)(F)F)NC(=O)N(C3CCCCC3)C2=O)cc1 (stereo not given)	0.73	-0.11
Cc1ccc(S(=O)(=O)NCc2ccc(C(=O)N3CCN(Cc4ccccc4)CC3)cc2)cc1	1	1.6
O=C(OCCN1CCOCC1)c1ccccc1Cl	1.1	0.44
CCN(CC)C(=O)C1CCCN(Cc2ccc3ccccc3c2)C1 (stereo not given)	1.2	-2.3
CC1CCCN(C(=O)c2ccc(CNc3c(N4CCCCC4)c(=O)c3=O)cc2)C1 (stereo not given)	0.73	-0.15
O=C(Cn1c(=S)[nH]c2ncccc2c1=O)NCCc1ccccc1	0.9	1.3
COc1cc(Nc2nc3ccccc3n3nnnc23)cc(OC)c1OC	0.59	-0.46
CCc1cc(C(=O)N(C)CC(=O)N(CC(C)C)c2c(N)n(CC(C)C)c(=O)[nH]c2=O)sc1C	1	-0.47
CCOC(=O)Cc1csc(N/C(=N/S(=O)(=O)c2cc(Br)ccc2OCC)c2ccccc2)n1	0.68	-1.8
CCc1ccccc1NC(=O)c1cc(S(=O)(=O)N2CCCC2)c[nH]1	0.69	0.06
Cc1c(Cl)c([N+](=O)[O-])nn1CC(=O)NCC(C)C	0.09	-1.3

A different layout for some results above:
Screens in order: KCNQ2 pot | KCNQ2 pot baseline
O=C(Cn1c(=S)[nH]c2ncccc2c1=O)NCCc1ccccc1
 : 0.9 | 1.3
COc1cc(Nc2nc3ccccc3n3nnnc23)cc(OC)c1OC
 : 0.59 | -0.46
CCc1cc(C(=O)N(C)CC(=O)N(CC(C)C)c2c(N)n(CC(C)C)c(=O)[nH]c2=O)sc1C
 : 1 | -0.47
CCOC(=O)Cc1csc(N/C(=N/S(=O)(=O)c2cc(Br)ccc2OCC)c2ccccc2)n1
 : 0.68 | -1.8
CCc1ccccc1NC(=O)c1cc(S(=O)(=O)N2CCCC2)c[nH]1
 : 0.69 | 0.06

Retrieved by compound from above (2):
SMILES	KCNQ2 pot	KCNQ2 pot baseline
Cc1cc(C(=O)NNC(=O)Nc2ccccc2)no1	0.65	0.92
COC(=O)c1ccc(NC(=O)CSc2nncc3ccc(OC)c(OC)c23)cc1	0.48	-0.76

(cont.)
SMILES	KCNQ2 pot	KCNQ2 pot baseline
COC(=O)c1ccccc1NC(=O)Nc1ccc(Cl)cn1	1.1	0.02
CC1Cc2ccccc2N1Cc1cccc(S(=O)(=O)N(C)C)c1 (stereo not given)	0.24	-0.1
CC(C)(C)N1CC23C=CC(C[C@@H]2C1=O)O3 (stereo not given in full)	0.68	-1.1
CCOC(=O)c1ccc(Nc2nc(C)cc(C)c2C#N)cc1	2.4	0.98
O=S(=O)(CCN1CCOCC1)c1ccc(Cl)cc1	0.13	1
Cc1cccc(NC(=O)CSc2nnc3ccc(-c4ccccn4)nn23)c1	0.53	-0.52
O=C(/C=C/c1cccc([N+](=O)[O-])c1)NCCN1C(=O)S/C(=C\c2ccc(F)cc2)C1=O	0.9	-1.7
O=C(Nc1ccc(N2C(=O)c3cccc4cccc(c34)C2=O)cc1)c1ccc(N2CCCCC2)c([N+](=O)[O-])c1	0.62	-1.1
CC1CN=C(NC(=O)c2cccc([N+](=O)[O-])c2)S1 (stereo not given)	0.89	0.15
COc1ccc(NC2CCCN(C(=O)c3ccc(OC)cc3OC)C2)cc1 (stereo not given)	0.69	1.1
Cc1ccc(/C=N/NC(=O)c2nnn(-c3nonc3N)c2CN(C)C2CCCCC2)cc1	0.06	0.04
O=C(Cc1ccc(S(=O)(=O)N2CCOCC2)s1)N1CCN(c2ccc(C(F)(F)F)cc2[N+](=O)[O-])CC1	0.02	-0.56
CCOC(=O)C1=C(C)N(C)C(=S)NC1c1cccc(Cl)c1Cl (stereo not given)	0.64	-0.85
COCCNC(=S)N/N=C(\C)c1cccc([N+](=O)[O-])c1	0.1	-1
O=C1CN(C(=O)COC(=O)CNC(=O)c2ccc(Cl)cc2)c2ccccc2N1	0.03	3.4
CCOC(=O)NC(N(O)c1cccc(Cl)c1)C(Cl)(Cl)Cl (stereo not given)	3.3	-1.4
O=C(CSc1n[nH]c(-c2ccncc2)n1)Nc1ccccc1	0.78	1.1
CC(C1CC2CCC1C2)n1c(-c2cccs2)n[nH]c1=S (stereo not given)	2.3	-0.1
CC(C)COC(=O)Nc1nnc(SCc2ccccc2F)s1	1.1	0.86
CCCCn1c(=O)[nH]c2ccccc21	1	-0.9
CC1CCOC2(O1)C(=O)N(CN1CCN(c3cccc(Cl)c3)CC1)c1ccccc12 (stereo not given)	0.15	0.85
CN(C)C(=O)CCC(=O)N1CCCC(N2CCN(c3cccc(C(F)(F)F)c3)CC2)C1 (stereo not given)	0.28	0.42
COc1ccc(NC(=O)COc2ccc3c(c2)OCO3)cc1	0.59	-0.24
CN1CCN(C(=O)c2ccccc2NC(=O)c2cccs2)CC1	0.67	0.29
COc1ccc(CNC(=O)CN2C(=O)CSc3ccc(S(=O)(=O)N4CCOCC4)cc32)cc1	1.2	1.4

Next section:
SMILES	KCNQ2 pot	KCNQ2 pot baseline
Cc1ccc(-n2c(CSc3nc(C)cc(C)n3)nnc2SCC(=O)NCc2ccco2)cc1	1.2	1.1
Cc1c(CCC(=O)N[C@@H](CC(C)C)C(=O)O)c(=O)oc2c(C)c3oc4c(c3cc12)CCCC4	0.71	-0.22
NS(=O)(=O)c1ccc(NC(=O)Nc2ccc(C(F)(F)F)cc2)cc1	0.35	0.23
Cc1ccc(CC(=O)N/N=C/c2ccc3c(c2)OCO3)cc1	1.8	2.3
O=C(Cc1ccc(Cl)cc1)N/N=C/c1c(Cl)cccc1Cl	2.4	0.02
O=S(=O)(Nc1nc(-c2ccccc2)cs1)c1cccc(C(F)(F)F)c1	1.3	0.31
Cc1oc2ccccc2c1CNC(=O)N(C)C	0.72	-0.77
COCCNC(=O)c1ccc2snnc2c1	0.13	-0.66
Cn1c2ccccc2c(=O)c2ccc(C#CC3(O)CCCCC3)cc21	0.17	0.83
O=C(O)C(Cc1ccc(O)cc1)N1C(=O)C2CCCCC2C1=O (stereo not given)	1.1	1.3
N/C(=N\c1nc2ccccc2o1)NC(=O)c1ccc(F)cc1	1.1	-0.84
O=C(c1c(F)c(F)c(F)c(F)c1F)N1CCN(Cc2ccc3c(c2)OCO3)CC1	0.55	0.12
COC(=O)c1ccccc1NC(=O)CCCn1nc(C)c2c(C)n(-c3ccccc3)nc2c1=O	2.1	-0.35
Cc1ccccc1-c1nc(CS(=O)CC(=O)NC2CCCCC2)c(C)o1 (stereo not given)	0.91	-1.1
NC(=O)c1cc(-c2ccccc2)nc(N2CCCCCC2)n1	1.5	1.2
O=C(O)CCSc1nc2ccccc2n1Cc1ccccc1	0.21	2.1
O=C(O)C/C(=C\c1cccc(NC(=O)c2ccccc2Cl)c1)c1nc2ccccc2s1	0.31	0.02
CCOc1ccc(NC(=O)N2CCN(S(C)(=O)=O)CC2)cc1	0.67	0.69
COc1ccc(C2C(C(=O)Nc3ccccc3)=C(C)Nc3nc(CCCO)nn32)cc1 (stereo not given)	1	-0.01
CCCCCn1nc(C)c(/C=N\NC(=O)c2cc(C)oc2C)c1C	1.1	-1.8
CCOc1ccc2[nH]c3nc(SCC(=O)NC4CCCC4)nnc3c2c1	0.03	2
Cn1nccc1C(=O)N1CCCC(N2CCN(c3cccc(C(F)(F)F)c3)CC2)C1 (stereo not given)	1.1	-0.35
O=C(Nc1ccc(Oc2ccc(NC(=O)Nc3ccc([N+](=O)[O-])cc3)cc2)cc1)Nc1ccc([N+](=O)[O-])cc1	0.66	-1
COC(=O)C1=C(C)NC(=O)/C1=C\c1ccc2c(c1)OCO2	1.9	0.49
Cc1cccc(N(Cc2ccccc2)C(=O)c2ccc(CS(C)(=O)=O)cc2)c1	1.2	0.21

An excerpt from above in order of their number in KCNQ2 pot, smallest number first:
compound	KCNQ2 pot
O=C(Cc1ccc(S(=O)(=O)N2CCOCC2)s1)N1CCN(c2ccc(C(F)(F)F)cc2[N+](=O)[O-])CC1	0.02
CC1CCOC2(O1)C(=O)N(CN1CCN(c3cccc(Cl)c3)CC1)c1ccccc12 (stereo not given)	0.15
O=C(O)CCSc1nc2ccccc2n1Cc1ccccc1	0.21
O=c1[nH]c2ccccc2c2ccccc12	1.1
COC(=O)C1=C(C)NC(=O)/C1=C\c1ccc2c(c1)OCO2	1.9

Next section
SMILES	KCNQ2 pot	KCNQ2 pot baseline
CC(NC(=O)CSc1cccc(C(F)(F)F)c1)c1ccccc1 (stereo not given)	1.4	-0.02
COC(=O)c1cccc(C(=O)N2CCC(CCC(=O)NCc3ccc(F)cc3)CC2)c1	0.08	-3.2
O=C(CSc1nnc2ccc(-c3ccncc3)nn12)N1CCCCC1	0.11	0.54
CCOC(=O)C1C(=O)NC(c2ccccc2)=NC1c1ccc(OC)cc1 (stereo not given)	0.33	-0.64
CCCCNC(=O)n1c(=O)oc2ccc(Cl)cc21	0.67	-0.79
Cn1c2ccccc2c2nnc(SCC(=O)Nc3cccc(C(=O)O)c3)nc21	0.18	0.77
Cn1cccc/c1=N\c1cccc[n+]1C	1.2	0
Cc1ccc(-c2nnc(-c3ccccc3Br)o2)cc1	0.22	2.7
O=C(CC1CCCCC1)Nc1ncn[nH]1	0.33	0.05
CC(C)Nc1nc(NC(C)C)nc(Oc2ccc(/C=N/O)cc2)n1	0.01	0.05
O=c1nc2ccccc2c2n1CC(CN1CCN(c3cccc(Cl)c3)CC1)N2 (stereo not given)	1.1	-2.7
Cc1cccc(N2CC(C(=O)Nc3nccs3)CC2=O)c1C (stereo not given)	0.25	0.64
CC(=O)NC(CCS(C)(=O)=O)C(=O)Nc1cccc2ccccc12 (stereo not given)	0.07	0.24
Cc1ccc(C(=O)Nc2ccnc(-c3ccncc3)n2)cc1	2.4	0.62
C=C(C)c1nc2cc(OC)c(OC)cc2c(=O)o1	0.44	0.01
CCc1nnc(NS(=O)(=O)c2ccc(N=CC3=C(O)CC(C)(C)CC3=O)cc2)s1	0.13	-0.35
CC(C)(C)OC(=O)N1CCCN(C(=O)Nc2cccc(Cl)c2)CC1	0.01	-0.97
O=C(N/N=C/c1ccoc1)c1ccccc1O	0.18	-1.6
C=CCn1c(SCC(=O)NC2CCS(=O)(=O)C2)nnc1-c1ccc(Cl)cc1 (stereo not given)	0.36	-0.27
Cc1cccc(C(=O)NC2CCN(CC(=O)N3CCOCC3)CC2)c1	0.85	-1.4
C/C(CC(=O)Nc1ccc(Cl)cc1)=N\NC(=O)C(=O)NCCO	0.04	1.5
COC(CNC(=O)c1ccc(-n2c(=S)[nH]c3ccccc3c2=O)cc1)OC	0.24	0.93
C/C(O)=C(\N=Nc1cc(C)ccc1O)C(N)=O	0.08	-0.11
COC(OC)c1ccc(C#N)c(=O)[nH]1	0.04	-0.01
Cc1noc(C)c1C(=O)OCC(=O)Nc1cc(S(=O)(=O)N2CCOCC2)ccc1Cl	0.5	-0.26

Continued.
SMILES	KCNQ2 pot	KCNQ2 pot baseline
CC(=O)Nc1ccc2c(c1)C(=O)N(c1cccc(C)c1)C2=O	0.17	1.7
CN(C)S(=O)(=O)c1ccc(C(=O)Nc2cc(=O)n(C)c(=O)n2C)cc1	0.19	0.67
CCC(C)[C@H](NC(=O)Nc1cccc(OC)c1)C(=O)OC (stereo not given in full)	1.2	-0.87
S=c1nc(-c2ccc(Br)cc2)[nH]c2ccccc12	26*	-1.2*
CCC1(CC)Cc2ccccc2-c2nc(CCl)[nH]c(=O)c21	0.28	0.73
c1cncc(CSc2nnc3ccc(-c4cccs4)nn23)c1	2	-0.28
CCCS(=O)(=O)N1CCCC(C(=O)c2cccc(Cl)c2)C1 (stereo not given)	0.9	-1
Cc1ccc(N2CC(C(=O)OCC(=O)c3ccc([N+](=O)[O-])cc3)CC2=O)cc1 (stereo not given)	0.41	-2.6
CCOC(=O)c1cc(C(=O)OCC)c(=O)[nH]c1N1CCCCC1	0.46	-1
O=C(NCc1ccco1)c1cc(S(=O)(=O)N2CCCC2)ccc1Cl	0.15	-1.9
CCC(=O)N1CCN(C(=O)CC)C1c1ccccc1	1.2	0.26
O=C(NCc1ccccc1)C1Nc2ccc(OC(F)(F)F)cc2C2C=CCC12 (stereo not given)	2.1	0.26
CCn1c(SCC(=O)Nc2cc(NC(C)=O)ccc2OC)nnc1-c1ccccn1	0.03	-0.34
C=CCOc1c(CNc2ccc(S(N)(=O)=O)cc2)cccc1OC	1.4	1.1
Cc1ccc(C(=O)N/C(=C/c2cccs2)C(=O)N2CCCCCC2)cc1	0.49	-2.2
